# Bioassay records (PubChem)
# BJeLR lethal: MLPCN primary cell-based screen for lethality selective to Ras in HRASV12 cells. inhibition, % (concentration not given with the values). BJeLR (HRASV12) viability, CellTiter-Glo ATP luminescence, 48 h; reference of the scale not given here. 300,000 compounds, 0.17% hits;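 active = replicate mean above 50%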;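 note: 50 nL library stock added to about 25 µL; numbers are from one replicate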
# ugtP null kill: growth inhibition of ugtP-null S. aureus, primary screen, RN4220 ugtP deletion, OD600; 16 h; some inactives read as strong as hits; growth inhibition, % (test concentration not listed); AID 1259309, 2017; 330,000 compounds, 0.54% hits;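 active = z-score under -3 and OD600 up to 0.15 on both plates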;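 note: plate controls were untreated wells for no effect and antibiotic for full effect; wells of about 80 µL received 100 nL stock; the first replicate is given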
# RN4220 kill: growth inhibition of S. aureus RN4220, primary screen, OD600 | 330,000 compounds, 0.33% hits | 16 h | inhibition, % (concentration not given with the values);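 active = z-score of -3 or lower and OD600 up to 0.18 on both plates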;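 note: plate controls were untreated cells for no effect and reference antibiotic for full effect; stock transfer was 100 nL into about 80 µL; one replicate is shown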
# Bead autofluor: compound fluorescence in toxin protease inhibitor counterscreen | fluorescence intensity (concentration not given with the values) | 360,000 compounds, 3.1% hits | AID 624483 | compound autofluorescence counterscreen, microsphere flow cytometry; active compounds read high;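 active = at least 3 SD above the mean of all compounds, about 16000 in these data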;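 note: 100 nL of 1 mM stock went into each well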
# Mtb hypoxia rep: PubChem AID 1159583. M. tuberculosis hypoxia-regulated fluorescent reporter, fluorescence. fluorescence inhibition, % (no concentration beside the values). 300,000 compounds, 0.1% hits;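 active = 35 to 45% if threefold the growth effect, above 45% if 1.5-fold the growth effect; inactive = the rest, general growth blockers included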;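 note: wells of about 50 µL received 100 nL stock; 0% = vehicle wells and 100% = reference inhibitor wells; whole bacteria with a GFP reporter of the hypoxia response; strong numbers were not always called active; many hits fall short of the cut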
# PrP 5UTR inh: inhibition of PrP 5' UTR reporter expression; cell-based PrP 5' UTR mRNA reporter, plate reader; inhibition, % (no concentration beside the values); 340,000 compounds, 0.35% hits;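 active = every replicate at 50% or more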;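 note: 0 = median of the neutral control wells; tested in H4 reporter cells; numbers are from one replicate; inactives centre near -14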
# Mtb hypoxia rep growth: also measured in Mtb hypoxia rep; calls as there; growth inhibition, %; measured here: M. tuberculosis growth (absorbance);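 0% = vehicle and 100% = reference antibiotic; read after six days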
# * hit, by the source's call; . = no result given; & = joins results of further samples.
SMILES,BJeLR lethal,ugtP null kill,RN4220 kill,Bead autofluor,Mtb hypoxia rep,Mtb hypoxia rep growth,PrP 5UTR inh
CCC(c1nnnn1Cc1ccco1)N(CCc1ccccc1)Cc1cc2ccc(OC)cc2[nH]c1=O (centres undefined),-15.6,-11.9,26.0,3406,12.6,-15.0,-3.7
COC(=O)CSc1nnc(CSc2nc(C)cc(C)n2)n1Cc1ccco1,8.7,-2.3,1.5,4177,1.7,0.6,2.2
COc1ccc(CCNc2nc3ccccc3n3nnnc23)cc1OC,-9.0,-12.3,-0.1,5327,-1.6,4.7,-59.3
CCc1cc2cc3c(cc2nc1SCC(=O)Nc1nnc(C)s1)OCCO3,-15.7,0.1,5.1,6296,0.9,3.6,-11.1
CCCCN(CC)Cc1ccc(CNC(=S)Nc2c(C)cc(C)cc2C)o1,-15.1,5.1,4.2,4394,9.0,-0.3,6.3
Cc1ccc(S(=O)(=O)N(C)C(=O)NC(=O)NS(=O)(=O)c2ccccc2)cc1,4.9,3.1,-0.6,1965,11.7,0.5,-19.3
CC(NC(=O)c1ccccc1)c1nnc(SCC(=O)NC2CCCC2)n1C (centres undefined),-3.0,.,.,3146,.,.,7.3
O=c1c2[nH]c3ccccc3c2ncn1CCC1=CCCCC1,3.7,2.7,-2.8,4323,1.5,-4.1,-23.1
O=C(NCc1ccccc1)C1CCCN1S(=O)(=O)c1ccc(F)cc1 (centres undefined),-12.3,6.7,5.4,3503,11.9,12.8,-25.6
COC(=O)C1=C(C)NC(=O)NC1c1cc(Cl)ccc1OC (centres undefined),-9.2,-1.1,3.8,7148,0.2,-6.1,-3.8
CCOC(=O)c1c(NC(=O)Cc2cccs2)sc(C)c1C,-7.4,38.7,6.5,8265,10.6,6.2,-20.9
CCN1CCN(Cc2ccc(NC(=O)c3ccc(C)c(NC(=O)C[C@@H]4NC(=O)[C@H](Cc5ccccc5)NC4=O)c3)cc2C(F)(F)F)CC1,7.2,.,.,3419&3751,.,.,-24.6
CCCOc1ccc(Oc2nc(-c3ccncc3)nc3ccccc23)cc1,-3.6,-1.1,3.5,3009,-6.2,-8.3,-29.5
CO/C([O-])=N/c1c[n+](-c2ccc(C)cc2)no1,-6.4,3.7,-0.6,4494,.,.,-7.2
Cc1cccc(NC(=O)CN(C)S(=O)(=O)c2cccs2)c1,7.5,7.6,1.6,7234,9.0,3.8,-27.7
CCCC(=O)N1CC(=O)Nc2ccc(C)cc2C1c1ccc(F)cc1 (centres undefined),-2.6,-5.3,7.9,6416,1.6,4.3,-10.9
CCCOc1ccc(C(=O)CCC(=O)OCC(=O)N(CC)c2c(N)n(Cc3ccccc3)c(=O)[nH]c2=O)cc1,.,3.7,1.5,4038,-4.7,-0.3,-27.4
COc1cccc(OCC(O)CN2CCN(CCO)CC2)c1 (centres undefined),0.6,-5.2,0.7,2150,.,.,-13.8
O=C(Nc1cccc(F)c1)Nc1c[nH]c(=O)[nH]c1=O,2.1,16.3,1.6,3628,7.4,14.2,-1.4
COc1ccc(CN2CCNC(=O)C2CC(=O)NCCSc2nccn2C)c(OC)c1 (centres undefined),11.1,1.4,-1.1,4453,-8.0,-8.2,-21.5

# A second format for some results above.
Compound	BJeLR lethal	ugtP null kill	RN4220 kill	Bead autofluor	Mtb hypoxia rep	Mtb hypoxia rep growth	PrP 5UTR inh
CCC(c1nnnn1Cc1ccco1)N(CCc1ccccc1)Cc1cc2ccc(OC)cc2[nH]c1=O (centres undefined)	-15.6	-11.9	26.0	3406	12.6	-15.0	-3.7
CCCOc1ccc(Oc2nc(-c3ccncc3)nc3ccccc23)cc1	-3.6	-1.1	3.5	3009	-6.2	-8.3	-29.5

# Additional results follow.
SMILES,BJeLR lethal,ugtP null kill,RN4220 kill,Bead autofluor,Mtb hypoxia rep,Mtb hypoxia rep growth,PrP 5UTR inh
CN(C)CCN(Cc1cc2cc3c(cc2[nH]c1=O)OCCO3)C(=S)NCC1CCCO1 (centres undefined),-1.9,16.8,4.2,4598,5.1,-3.3,-29.5
O=C(Nc1ccccc1)OCCNC(=O)c1ccccc1,-1.5,-4.1,-2.4,2652,.,.,-21.3
Cc1ccc2nc(C(C)O)[nH]c2c1 (centres undefined),4.9,0.5,1.3,4124,8.9,6.4,-6.0
COc1cc(C(=O)NC2=NCCS2)cc(OC)c1OC,-3.9,2.2,2.9,4305,.,.,-14.0
O=c1[nH]c(=S)[nH]c(O)c1N=Nc1ccc(S(=O)(=O)N2CCc3ccccc32)cc1,-0.2,6.0,4.2,2491,-4.1,1.3,-20.3
O=C(C[n+]1cc(-c2ccc(F)cc2)n2c1CCC2)c1cccs1,7.7,3.5,3.4,3705,15.1,1.5,-82.7
Cn1c(NC(=O)c2cccs2)cc(=O)n(C)c1=O,-0.3,11.9,4.9,5988,4.5,5.2,-36.9
CCCC(C)C(=O)OCC(=O)NCc1ccc(OC)c(OC)c1 (centres undefined),-3.9,6.7,1.2,4792,1.7,12.5,0.5
COc1ccccc1CNc1nc(C)c(C(=O)N(C)C)s1,-11.3,5.2,1.4,3588,1.3,0.2,-12.4
Cc1cnc(NC(=O)COc2ccccc2)s1,2.2,4.7,2.0,6751,5.1,3.2,-97.5
CCOC(=O)/C(C#N)=C\C1=C(N2CCCC2)CC(C)(CC)OC1 (centres undefined),-2.9,-7.1,-12.8,3044,15.3,5.7,-0.9
COc1ccc(NC(=O)CCCC2CCCCC2)cc1S(=O)(=O)N1CCCCC1,-4.6,1.4,1.0,2111,4.5,3.6,-5.8
CC1(C)CC(=O)c2c(O)cc(OCC(=O)N3CCN(c4ccccc4)CC3)cc2O1,-2.0,4.7,2.1,5727,.,.,-32.1
Cc1ccc(C(=O)NCCc2nnc(SCC(=O)Nc3nc(-c4ccccc4)cs3)n2C)cc1,-2.1,-12.4,0.7,5973,-7.7,5.7,-11.2
COc1ccc(CC(C#N)(CO)c2nc3ccccc3[nH]2)cc1 (centres undefined),5.3,0.0,6.0,1984,18.2,6.2,-13.2
CC(C)c1ccc(N(CCc2ccccn2)C(=O)C(C)(C)C)cc1,1.4,0.8,8.6,4586,12.7,9.5,-5.6
O=C(CCC(=O)c1ccccc1)NC1CCCN(Cc2ccccc2F)C1 (centres undefined),-8.6,-3.5,-0.2,4523,-13.6,10.4,-3.2
O=C1Nc2ccccc2C(O)(C(=O)NCc2ccc3c(c2)OCO3)N1c1ccccc1 (centres undefined),-15.3,-0.1,-4.6,9367,9.4,1.5,-21.8
CCCCN(CCCC)C(=O)C1(P(=O)(c2ccccc2)c2ccccc2)CCC1,2.8,6.2,5.6,4683,3.8,-1.5,-15.3
CC(C)NC(=O)N(C)CC1Oc2ccc(NS(=O)(=O)c3cccs3)cc2C(=O)N(C(C)CO)CC1C (centres undefined),.,-4.8,8.0,.,3.1,4.9,.

# Twelve compounds already listed, sorted by formula weight, falling.
SMILES,BJeLR lethal,ugtP null kill,RN4220 kill,Bead autofluor,Mtb hypoxia rep,Mtb hypoxia rep growth,PrP 5UTR inh
CC(C)NC(=O)N(C)CC1Oc2ccc(NS(=O)(=O)c3cccs3)cc2C(=O)N(C(C)CO)CC1C (centres undefined),.,-4.8,8.0,.,3.1,4.9,.
Cc1ccc(C(=O)NCCc2nnc(SCC(=O)Nc3nc(-c4ccccc4)cs3)n2C)cc1,-2.1,-12.4,0.7,5973,-7.7,5.7,-11.2
O=C1Nc2ccccc2C(O)(C(=O)NCc2ccc3c(c2)OCO3)N1c1ccccc1 (centres undefined),-15.3,-0.1,-4.6,9367,9.4,1.5,-21.8
CCCCN(CCCC)C(=O)C1(P(=O)(c2ccccc2)c2ccccc2)CCC1,2.8,6.2,5.6,4683,3.8,-1.5,-15.3
CC1(C)CC(=O)c2c(O)cc(OCC(=O)N3CCN(c4ccccc4)CC3)cc2O1,-2.0,4.7,2.1,5727,.,.,-32.1
O=C(CCC(=O)c1ccccc1)NC1CCCN(Cc2ccccc2F)C1 (centres undefined),-8.6,-3.5,-0.2,4523,-13.6,10.4,-3.2
O=C(C[n+]1cc(-c2ccc(F)cc2)n2c1CCC2)c1cccs1,7.7,3.5,3.4,3705,15.1,1.5,-82.7
CC(C)c1ccc(N(CCc2ccccn2)C(=O)C(C)(C)C)cc1,1.4,0.8,8.6,4586,12.7,9.5,-5.6
CCOC(=O)/C(C#N)=C\C1=C(N2CCCC2)CC(C)(CC)OC1 (centres undefined),-2.9,-7.1,-12.8,3044,15.3,5.7,-0.9
COc1ccc(CC(C#N)(CO)c2nc3ccccc3[nH]2)cc1 (centres undefined),5.3,0.0,6.0,1984,18.2,6.2,-13.2
Cn1c(NC(=O)c2cccs2)cc(=O)n(C)c1=O,-0.3,11.9,4.9,5988,4.5,5.2,-36.9
Cc1cnc(NC(=O)COc2ccccc2)s1,2.2,4.7,2.0,6751,5.1,3.2,-97.5

# (next part)
SMILES,BJeLR lethal,ugtP null kill,RN4220 kill,Bead autofluor,Mtb hypoxia rep,Mtb hypoxia rep growth,PrP 5UTR inh
c1ccc(-n2ncc3c2ncn2c(C4CCCCC4)nnc32)cc1,13.6,4.1,-15.1,.,-0.2,2.4,.
CN1CCN(S(=O)(=O)c2ccc(Oc3ccc(F)c(Cl)c3)nc2)CC1,-5.4,0.5,2.5,4531,3.1,3.5,-8.0
CC1(C)CC(=O)C(C=NCCCN2CCOCC2)=C(O)C1,-0.2,8.1,-2.1,4825,10.6,10.1,-77.3
CCN1CCN(C(c2cc3cc4c(cc3[nH]c2=O)OCO4)c2nnnn2C(C)(C)CC)CC1 (centres undefined),-12.2,11.3,5.6,20945*,3.3,2.2,-1.6
COc1cccc(/C=c2/s/c(=C(\C#N)C(=O)N3CCOCC3)n(-c3ccccc3)c2=O)c1,0.4,.,.,20549*,.,.,-11.7
COc1cc(C(=O)NCC(=O)N/N=C(C)\C=C\c2ccccc2)cc(OC)c1OC,10.8,.,.,4229,.,.,-6.4
O=C(/C=C/c1ccccc1)N1CCN(CC(O)COc2ccccc2)CC1 (centres undefined),-2.8,.,.,2562,.,.,-20.3
COc1ccc(C2N(c3ccccc3)C(=S)N3CCCN23)cc1 (centres undefined),2.0,-1.6,2.0,7197,1.8,3.8,-11.8
COc1cccc(NC(=O)CNCc2ccccc2)c1,-20.6,7.1,4.3,3696,-3.7,4.0,-18.7
C=CCOc1ccc(C=NNC(=O)C2CCCC2)cc1OCC,.,12.6,4.2,.,10.4,4.4,.
O=C(NN=Cc1ccc(OCC(=O)N2CCCC2)cc1)C(=O)Nc1ccccc1F,.,-0.1,6.8,.,2.7,0.6,.
COc1cc(C#Cc2c(-c3cncn3C)n(C)c3ccc(-c4ccc(OC)nc4)cc23)cc(OC)c1,.,48.3,9.3,2958,3.2,7.2,-9.1
COc1ccc(CCNC(=O)c2cc3ccccc3oc2=O)cc1,4.0,1.5,3.6,3831,15.9,7.5,-31.8
COC(=O)CNC(=O)COC(=O)C(Cc1ccccc1)NC(=O)c1ccco1 (centres undefined),5.9,-0.7,3.5,4522,.,.,-14.0
CCOC(=O)CC(=O)CSc1nc2ccccc2c(=O)n1-c1ccc(C(=O)NCCOC)cc1,0.5,12.1,6.6,16847*,9.4,0.1,3.8
N#CC(c1ccccn1)(c1ncc(C(F)(F)F)cc1Cl)N1CCOCC1 (centres undefined),-0.3,2.8,-0.5,22287*,2.2,5.1,-30.8
O=C1Nc2ccccc2SC1c1ccccc1Cl (centres undefined),.,-5.8,-1.3,3507,19.4,13.0,-16.9
COc1cc(CNc2ccc(N3CCN(C(C)=O)CC3)cc2)ccc1OCc1ccccc1,2.6,1.9,2.9,3629,5.9,-0.2,-9.5
O=C(c1ccco1)N1CCN(S(=O)(=O)N2CCOCC2)CC1,9.8,3.0,4.3,10394,4.4,2.7,-19.3
CCOc1ccc(NC(=O)CC(C)=NNC(=O)COc2ccc(Br)cc2C)cc1,.,2.2,-0.6,.,12.4,11.1,.
CSc1cccc(NC(=O)c2ccc(NC3=NC4CS(=O)(=O)CC4S3)cc2)c1 (centres undefined),-7.2,-1.5,-11.2,5151,11.5,9.9,-19.8
COc1ccccc1CNC(=O)C(=O)NCC1OCCCN1S(=O)(=O)c1cccs1 (centres undefined),0.2,1.4,2.4,6144,3.8,15.6,1.5
CC(=O)N1CCC2(CC1)C(C#N)=C(N)Oc1c2sc2nc(C)cc(C)c12,-17.9,-3.8,1.0,4007,7.4,4.1,-3.8
O=C(NCCc1nnc2ccc(N3CCCC3)nn12)c1ccccc1,-1.2,2.2,-2.4,5899,1.8,-1.9,-10.8
O=c1[nH]c(-c2ccccn2)nc2sc(-c3ccccc3)cc12,41.4,99.8*,99.6*,4794,5.9,13.8,-59.6
Cc1csc(N/N=C/c2ccccc2F)n1,-5.7,.,.,3808,.,.,-65.8

# Compounds as they come; any-hit rate near 4%.
